HepG2 = HepG2 cell cytotoxicity, dose response, cytotoxicity control, ATP luminescence, cherry-pick, activator set 2 (AID 1053143); HepG2 viability, CellTiter-Glo ATP luminescence, 72 h; activity change, negative = cytotoxicity, % at the top dose, mostly 26 µM; hits show AC50 in µM; actives 3.7% (n = 3,400);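 active means fitted AC50 at most twice the highest valid dose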;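 further: 0 = neutral control and -100 = positive control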
* = called active by the depositor; [ ] = another dose, or the depositor's remark. These rows are one share of the data (hit frequency here may not be typical).

Sample of the layout, three compounds:
SMILES | HepG2
Cc1cc(C(=O)Nc2ccc(Br)cn2)sc1C | -2%
Cc1ccc2nc(-c3ccc(NC(=O)CN4CCN(c5ccccn5)CC4)cc3)sc2c1 | 7%
N/C(=N\OC(=O)c1ccc(Cl)cc1Cl)c1cccnc1 | -9%

Main list (from the top)
SMILES | HepG2
Cc1cc(C(=O)Nc2ccc(Br)cn2)sc1C | -2%
Cc1ccc2nc(-c3ccc(NC(=O)CN4CCN(c5ccccn5)CC4)cc3)sc2c1 | 7%
N/C(=N\OC(=O)c1ccc(Cl)cc1Cl)c1cccnc1 | -9%
O=C(NCCc1ccccc1F)C(=O)Nc1nccs1 | 8%
Cc1ccc(NC(=O)Nc2cccc(C)n2)cc1 | -8%[6 µM]
Cn1c(=NC(=O)c2ccco2)sc2cccc(F)c21 | 25µM*
Cc1cccc(N/C=C/C(=O)c2ccc(Cl)cc2)c1 | -11%
C#CCN1C(=O)S/C(=C\c2ccc(-c3ccc(Cl)c(C(=O)O)c3)o2)C1=O | -14%

Continued:
SMILES | HepG2
Cc1cc(C)n(C(N)=NC(=O)c2ccccc2)n1 | -14%
Cc1ccc(OCC(=O)Nc2ccccc2F)cc1 | 7%
O=C(Nc1ccc(Br)cn1)c1ccc(Cl)s1 | -2%
COc1ccc2nc(NC(=O)c3cccs3)sc2c1 | 26µM*
C(/CCc1ccccc1)=N\Nc1nc2ccccc2[nH]1 | 0%
CCOC(=O)C1CCN(c2ccc(-c3cccs3)nn2)CC1 | 26µM*
CC(C)(C)n1cnc2cc(NC(=O)c3ccc(Cl)cc3)ccc21 | -2%
O=C(c1ccccc1)c1cnc(-c2ccc(Cl)cc2)s1 | -22%

Later entries.
SMILES | HepG2
COc1cc(/C=C/c2ccc3cccc(O)c3n2)cc(OC)c1OC | 9.5µM*
CC(C)OC(=O)CSc1nnc(C2CCCCC2)n1N | 61%
CC(C)(C)n1cnnc1Sc1ccc([N+](=O)[O-])cn1 | -13%
CC(=O)Nc1ccc2oc(-c3ccccc3)nc2c1 | -12%
COc1cc2ccccc2cc1C(=O)NC1CCC(C)CC1 (stereo unspecified) | 7%
COc1ccc(/C=C/C(=O)Nc2cccnc2Cl)cc1 | -19%
O=C(NC1CCCCC1)c1ccc2ccccc2c1 | -2%
Fc1ccccc1-c1ccc(/C=N/Nc2nc3ccccc3[nH]2)o1 | -16%

Remaining list, next part.
SMILES | HepG2
COCCNC(=O)C(c1ccc(C)o1)N(Cc1ccccc1)C(=O)Cn1nnc2ccccc21 (stereo unspecified) | 3%
Nc1c(C(=O)c2ccccc2)oc2ccc(Br)cc12 | 4%
COc1ccc(C(=O)CN2Cc3ccccc3C2=N)cc1 | -12%
COc1cccc(NC(=O)c2cc3ccccc3cc2OC)c1 | -13%
Cc1onc(-c2ccccc2)c1C(=O)Nc1nc(-c2cc(F)ccc2F)cs1 | -12%
Cc1ccc2c(c1)COc1c3ccc(C(=O)N4CCOCC4)cc3nn1-2 | -30%
CSc1ccc(C2c3[nH]c4ccccc4c3CCN2C(=O)c2ccnn2C)cc1 (stereo unspecified) | -12%
CCOC(=O)c1ccc(-c2ccc(C=O)o2)cc1 | 37%

The list continues:
SMILES | HepG2
Clc1ncccc1-c1nnn(-c2ccccc2)n1 | -7%
c1ccc(-n2cnnc2SCc2nc3ccccc3s2)cc1 | -15%
COc1ccc(NC(=O)NC(=O)c2ccccc2)cc1 | 15%
O=C(COc1ccccc1[N+](=O)[O-])Nc1ccc(Br)cc1 | -15%
CN(C(=O)CN1CCN(c2cnn(-c3ccccc3)c(=O)c2Cl)CC1)C1CCS(=O)(=O)C1 (stereo unspecified) | -14%
CCc1ccc2oc(C(=O)Nc3nonc3C)c(C)c2c1 | -19%
O=C(Nc1ccc(NC(=O)C2CCCCC2)nc1)c1cccs1 | 32%
COc1ccc(C2NN=C(c3ccc(C)cc3)S2)cc1OC (stereo unspecified) | -7%

(continued)
SMILES | HepG2
CC1=CCC(C(=O)O)C(C(=O)Nc2ccc(-c3nc4ccc(C)cc4s3)cc2)C1 (stereo unspecified) | -12%
COc1ccc(OCc2cc(C(=O)N3CCCC(CO)C3)no2)c2ccccc12 (stereo unspecified) | -2%
O=C(COc1ccc2ccccc2c1)N1CCCC1 | 2%
C/C(=N\NC(=O)c1nnn(-c2nonc2N)c1CN(C)c1ccccc1)c1cccnc1 | -10%
Nc1cc([N+](=O)[O-])ccc1OCc1ccccc1 | -16%
Clc1ccccc1-c1nc(-c2ccccc2)n[nH]1 | -27%
COc1ccccc1OCc1nc2ccccc2[nH]1 | -11%
Cc1ccc2nc(NC(=O)CS(=O)(=O)Cc3ccccc3)sc2c1 | -13%

Following part:
SMILES | HepG2
COC(=O)N/N=C/c1ccc(OC(=O)/C=C/c2ccco2)cc1 | -13%
CC(C)NC(=O)c1ccc2c3n(nc2c1)-c1ccc(Cl)cc1CO3 | -13%
Cc1ccc(S(=O)(=O)N(C)CC(=O)Nc2cc(C)ccn2)cc1 | -9%
COc1ccc(-c2nnc(-c3cccnc3)o2)cc1 | 22%
Cc1ccc(NC(=O)c2ccccc2NC(=O)Cc2ccccc2)cc1 | -12%
Cc1ccc(N=Cc2sc(O)c3ccccc23)cc1 | 12%
CC1CCN(c2ccc(NC(=O)c3cccnc3)cc2)CC1 | 3%
COc1ccc(C(=O)COC(=O)c2ccccc2O)c(OC)c1 | -21%

(list continues)
SMILES | HepG2
Cc1ccc(-c2nn(-c3ccccc3)cc2C=O)o1 | -1%
Cn1c(CCNC(=O)c2ccco2)nc2cc(NC(=O)c3ccccc3)ccc21 | -13%
CCN(CC)c1ccc(/C=N/NC(=O)OC(C)(C)C)cc1 | -13%
CCC(C)NC(=O)c1cc2cc3ccc(OC)cc3nc2s1 (stereo unspecified) | -6%
CC(C=NNc1ccc([N+](=O)[O-])cn1)=Cc1ccccc1 | 4%
O=C(NC1CC1)C1Nc2ccc(OC(F)(F)F)cc2C2C=CCC12 (stereo unspecified) | 30%
C(=N\NCc1ccccc1)/c1ccc2ncccc2c1 | 10%
Clc1ccc2nc(-c3cccc(Br)c3)c(Cc3ccccc3)n2c1 | -6%

Remaining list, next part
SMILES | HepG2
c1ccc2[nH]c(SCC3CCCCO3)nc2c1 (stereo unspecified) | 10%
O=C(C1CC1)N1CCN(c2nc3ccccc3s2)CC1 | 1%
COc1ccc2sc3ccccc3c(=O)c2c1 | -20%
Cc1ccc(-c2cc(C(=O)N3CCOCC3)c3cc(C)ccc3n2)cc1 | -16%
Cc1ccc2cc(NC(=O)c3ccccc3)ccc2n1 | 7%
O=C(Nc1ccc2c(c1)OCCO2)C(c1ccncc1)n1c(=O)c(-c2cc3ccccc3[nH]2)nc2ccccc21 (stereo unspecified) | -15%
CC(=O)Nc1nc(-c2ccc3ccccc3c2)cs1 | -13%
O=C(COc1ncnc2cc(Cl)ccc12)c1ccc2c(c1)OCCO2 | 8%

The list goes on:
SMILES | HepG2
Cc1cccc(NC(=O)c2cccc([N+](=O)[O-])c2O)c1C | -22%
Oc1ccc(-c2cn3ccccc3n2)cc1 | -7%
N/C(=N\OC(=O)c1ccc2c(c1)OCO2)c1ccncc1 | -1%
Cc1cccc2c(N=Nc3ccccc3)c(O)[nH]c12 | -12%
CS(=O)(=O)NN1C(=O)c2ccccc2NC1c1cc2ccccc2nc1Cl (stereo unspecified) | -10%
COc1cccc(/C=C/C(=C2\C(=O)N(c3ccccc3)N=C2C)c2ccc(Br)cc2)c1OC | 8%
O=C(Nc1nc2ccc(F)cc2s1)c1cccs1 | -10%
COCCNc1oc(/C=C/c2ccccc2)nc1C#N | -23%

Following part.
SMILES | HepG2
Cc1cccc(OCc2nc(-c3nonc3N)no2)c1C | -8%
COc1ccccc1C1C(C#N)=C(N)N(N(C)C)C2=C1C(=O)CC(C)(C)C2 (stereo unspecified) | -7%
C/C(=C\c1ccccc1)C(=O)NCc1ccco1 | -1%
Cc1ccc(NC(=O)C(=O)c2c[nH]c3ccccc23)cc1 | -8%
Cc1ccc(Sc2ncccc2O)cc1 | 6%[6 µM]
COc1cc(OC)cc(C(=O)O/N=C(\N)c2ccccn2)c1 | -15%
O=C(/C=C/Nc1ccc(F)cc1)c1ccc(Br)cc1 | -16%
Cc1ccc(NC(=O)Nc2nnc(-c3ccccc3F)s2)cc1 | -11%

The results go on:
SMILES | HepG2
COC(=O)[C@@H](Cc1c[nH]c2ccccc12)NC(=O)c1ccc2c(c1)OCO2 | -11%
O=C(Nc1ccc(Cl)cn1)c1ccc2nccnc2c1 | -14%
CCC(=O)Nc1ccc2c(c1)Cc1cc([N+](=O)[O-])ccc1-2 | 6%
Cc1nc(-c2ccc(NC(=O)c3ccccc3Br)cc2)cs1 | -4%
COc1ccc(C2=Nc3ccccc3N(C(=O)c3ccc4ncccc4c3)C2C(=O)NC(C)(C)C)cc1 (stereo unspecified) | -21%
Cc1nc([N+](=O)[O-])cn1CC(O)c1ccc(Cl)cc1 (stereo unspecified) | -5%
Brc1ccc(-c2nc(-c3ccccc3)no2)o1 | -12%
CCOc1cccc(/C=C/c2ccc3cccc(O)c3n2)c1O | 26µM*

Next compounds follow:
SMILES | HepG2
Clc1ccccc1C=NNc1ccccn1 | -19%
COC(=O)c1c(NC(C)=O)sc(C(=O)Nc2ccccc2F)c1C | 26µM*
COc1ccc(-c2cc3ccccc3[nH]2)cc1 | -3%
O=c1nc(N/N=C/c2c[nH]c3ccccc23)cn[nH]1 | -13%
CCOC(=O)c1sc(=NC(=O)c2cccc(OC)c2)n(C)c1C | -3%
O=C(c1ccc(-c2ccc(Cl)cc2Cl)o1)N1CCOCC1 | -4%
CC(=O)Nc1nc2ccc(-c3nc4ccccc4o3)cc2s1 | -12%
CCC(=O)Nc1cc2nn(-c3ccccc3)nc2cc1Cl | 5µM*

18 entries already listed, sorted by length of the SMILES, smallest number first:
SMILES | HepG2
Cc1ccc(Sc2ncccc2O)cc1 | 6%[6 µM]
Clc1ccccc1C=NNc1ccccn1 | -19%
COc1ccc(-c2cc3ccccc3[nH]2)cc1 | -3%
Brc1ccc(-c2nc(-c3ccccc3)no2)o1 | -12%
O=C(Nc1ccc(Cl)cn1)c1ccc2nccnc2c1 | -14%
CCC(=O)Nc1cc2nn(-c3ccccc3)nc2cc1Cl | 5µM*
CC(=O)Nc1nc2ccc(-c3nc4ccccc4o3)cc2s1 | -12%
O=C(c1ccc(-c2ccc(Cl)cc2Cl)o1)N1CCOCC1 | -4%
COc1cc(OC)cc(C(=O)O/N=C(\N)c2ccccn2)c1 | -15%
Cc1nc([N+](=O)[O-])cn1CC(O)c1ccc(Cl)cc1 (stereo unspecified) | -5%
CCOC(=O)c1sc(=NC(=O)c2cccc(OC)c2)n(C)c1C | -3%
COC(=O)c1c(NC(C)=O)sc(C(=O)Nc2ccccc2F)c1C | 26µM*
CCC(=O)Nc1ccc2c(c1)Cc1cc([N+](=O)[O-])ccc1-2 | 6%
CS(=O)(=O)NN1C(=O)c2ccccc2NC1c1cc2ccccc2nc1Cl (stereo unspecified) | -10%
COc1ccccc1C1C(C#N)=C(N)N(N(C)C)C2=C1C(=O)CC(C)(C)C2 (stereo unspecified) | -7%
COC(=O)[C@@H](Cc1c[nH]c2ccccc12)NC(=O)c1ccc2c(c1)OCO2 | -11%
COc1cccc(/C=C/C(=C2\C(=O)N(c3ccccc3)N=C2C)c2ccc(Br)cc2)c1OC | 8%
COc1ccc(C2=Nc3ccccc3N(C(=O)c3ccc4ncccc4c3)C2C(=O)NC(C)(C)C)cc1 (stereo unspecified) | -21%

(cont.)
SMILES | HepG2
c1ccc2nc(-c3ccc(-n4ccnc4)cc3)ccc2c1 | 43%
N/C(=N\OC(=O)c1ccc2ccccc2c1)c1ccccc1Cl | -5%
Cc1cnc(C(=O)Nc2nnc(C(C)C)s2)cn1 | 9%
C/C(=C\c1ccccc1)C(=O)Nc1nccs1 | -5%
CC(=O)c1c(C)[nH]c(C(=O)Nc2cccc(C)n2)c1C | -34%[12 µM]
O=c1cccc2n1Cc1cc3ccccc3nc1-2 | -2%[12 µM]
Cc1c(C(=O)Nc2nccs2)oc2ccc(F)cc12 | 1%
COc1cc(/C=N/Nc2nc3ccccc3s2)ccc1O | -19%

More records.
SMILES | HepG2
O=C(N/N=C/c1sc(=O)n(-c2ccccc2)c1Cl)c1ccccc1 | -18%
Clc1ccc2nc(CSCc3ccccc3)cn2c1 | -2%
Cc1cccc(-c2ncc(S(=O)(=O)C(C)(C)C)c(N)n2)c1 | -3%
c1ccc(-c2nc3nc4ccccc4nc3n2Cc2ccco2)cc1 | 4%
Cc1ccc(Nc2nc(-c3ccc(O)cc3O)cs2)nc1 | 26µM*
CCOc1ccc(OCc2ccc(C(=O)OCc3ccccn3)o2)cc1 | 26%
O=C1/C(=C/c2ccc(O)cc2)COc2ccccc21 | -9%
O=C(NCc1ccc(Cl)cc1Cl)Nc1ccccc1 | 0%

Following part.
SMILES | HepG2
CC(C)COc1ccc(C(=O)Nc2ccccc2[N+](=O)[O-])cc1 | 8%[6 µM]
COc1ccc(-c2csc(N(CC3CCCO3)C(=O)c3ccc(C)cc3)n2)cc1 (stereo unspecified) | -15%
Nn1c(SCc2c(F)cccc2F)nnc1-c1ccccn1 | -1%
Cc1nnc(NC(=O)c2ccc3ccccc3c2)s1 | -13%

Bioassay records: PubChem BioAssay, Broad Institute
